# Yeast UUG start = alters start codon recognition fidelity in yeast. S. cerevisiae UUG-firefly luciferase reporter, luminescence/redox ratio. activity score, % at 18.7 µM. 350,000 tested, 0.13% active. AID 602363;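 active means replicate mean at a twofold rise or more, about +100% in these data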;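 further: firefly luciferase made from a UUG start codon reports start codon fidelity; reporter light over untreated wells divided by growth signal over untreated wells; some hits fall short of that in this replicate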
# Env fusion inh = inhibitors of HIV Env-mediated cell fusion | 360,000 tested, 1.1% active | HeLa-JRFL Env/CEM21 cell fusion, luciferase | AID 651610 | inhibition, % at 12.3 µM;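 active means mean replicate inhibition score of at least 50 and every replicate individually at or above 50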;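 further: 0% = plate neutral controls and 100% = maraviroc near 300 nM; one replicate is shown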
# * marks the source's active call; other numbers are inactive results; [ ] = another dose, or the depositor's remark. The list is partial. The share of hits here may be higher or lower than overall.
SMILES,Yeast UUG start,Env fusion inh
CC(C)NC(=O)N(C)C[C@@H]1OCCCC[C@H](C)Oc2ccc(NS(=O)(=O)c3ccc(Cl)cc3)cc2C(=O)N([C@H](C)CO)C[C@H]1C,2,-69[16.7 µM]
C[C@H](CO)N1C[C@H](C)[C@H](CN(C)Cc2ccc3c(c2)OCO3)Oc2ccc(NC(=O)Nc3cccc4ccccc34)cc2C1=O,0,16[16.7 µM]
COc1ccc(S(=O)(=O)Nc2ccc3c(c2)C(=O)N([C@@H](C)CO)C[C@@H](C)[C@H](CN(C)CC2CCCCC2)OCCCC[C@H](C)O3)cc1,31,-92[16.7 µM]
CC(C)CC#Cc1cnc2c(c1)C(=O)N([C@H](C)CO)C[C@@H](C)[C@H](CN(C)C(=O)c1ccc(F)cc1)O2,6,17[16.7 µM]
C[C@@H]1CN([C@H](C)CO)C(=O)c2cc(NC(=O)NC3CCCCC3)ccc2O[C@@H](C)CCCCO[C@@H]1CN(C)S(=O)(=O)c1ccc(Cl)cc1,-15,11[16.7 µM]
Cc1ccc(S(=O)(=O)N[C@@H]2CC[C@H](CCNC(=O)Cc3ccccn3)O[C@@H]2CO)cc1,-3,14[16.7 µM]
Cc1ccc(S(=O)(=O)Nc2cccc3c2O[C@@H](CN(C)Cc2ccc(Oc4ccccc4)cc2)[C@H](C)CN([C@H](C)CO)C3=O)cc1,-15,-2[16.7 µM]
C[C@@H]1CN([C@H](C)CO)S(=O)(=O)c2ccc(C3=CCCC3)cc2O[C@@H]1CN(C)C(=O)c1ccncc1,-10,-1[16.7 µM]
O=C(CC1CC1)Nc1ccc2c(c1)[C@@H]1C[C@@H](CC(=O)N3CCCCC3)O[C@H](CO)[C@@H]1O2,-2,-28[16.7 µM]
O=C(CC1CC1)N[C@H]1CC[C@@H](CCNS(=O)(=O)c2ccc(F)cc2)O[C@H]1CO,2,-8[16.7 µM]
C[C@H](CO)N1C[C@H](C)[C@H](CN(C)Cc2cccc(F)c2)Oc2cc(C#Cc3ccccn3)ccc2S1(=O)=O,-7,-6[16.7 µM]
Cc1noc(C)c1NC(=O)N(C)C[C@@H]1OCCCC[C@@H](C)Oc2ccc(NS(=O)(=O)c3ccc(Cl)cc3)cc2C(=O)N([C@H](C)CO)C[C@@H]1C,22,27[16.7 µM]
COc1ccc(S(=O)(=O)N2C[C@H](O)COC[C@@H]3O[C@@H](CC(=O)N[C@H]4CCN(Cc5ccccc5)C4)CC[C@H]32)cc1,5,-9[16.7 µM]
C/C=C/c1ccc2c(c1)O[C@@H](CN(C)C(=O)COC)[C@@H](C)CN([C@H](C)CO)S2(=O)=O,-15,5[16.7 µM]
C[C@H]1CN([C@@H](C)CO)S(=O)(=O)c2ccc(-c3ccc(F)cc3)cc2O[C@@H]1CN(C)C(=O)C1CCOCC1,12,9[16.7 µM]
C[C@@H]1CN([C@H](C)CO)C(=O)c2cc(NC(=O)Nc3ccccc3)ccc2O[C@@H](C)CCCCO[C@H]1CN(C)Cc1ccc(C(F)(F)F)cc1,4,6[16.7 µM]
Cc1noc(C)c1NC(=O)N(C)C[C@H]1Oc2ncc(/C=C/c3ccccc3)cc2C(=O)N([C@H](C)CO)C[C@H]1C,8,21[16.7 µM]
CNC[C@H]1Oc2cc(-c3cccc(C(=O)N(C)C)c3)ccc2S(=O)(=O)N([C@@H](C)CO)C[C@H]1C,11,27[16.7 µM]
C[C@H](CO)N1C[C@H](C)[C@H](CN(C)C(=O)Nc2cccc3ccccc23)Oc2ccc(NS(=O)(=O)c3ccccc3)cc2CC1=O,5,4[16.7 µM]
C[C@@H]1CN([C@@H](C)CO)C(=O)c2cccc(NS(=O)(=O)c3ccc(F)cc3)c2O[C@@H]1CN(C)CC1CC1,3,-2[16.7 µM]
COc1ccc(S(=O)(=O)N(C)C[C@@H]2OCCCC[C@@H](C)Oc3ccc(NC(=O)CCCN(C)C)cc3C(=O)N([C@H](C)CO)C[C@H]2C)cc1,33,-19[16.7 µM]
COc1cccc(NC(=O)N[C@H]2C=C[C@@H](CC(=O)N3CCCCC3)O[C@@H]2CO)c1,2,3[16.7 µM]
C[C@@H]1CN([C@@H](C)CO)S(=O)(=O)c2ccc(C3=CCCC3)cc2O[C@@H]1CN(C)Cc1ccccc1,-4,44[16.7 µM]
CC(C)CC#Cc1cnc2c(c1)C(=O)N([C@H](C)CO)C[C@@H](C)[C@@H](CN(C)Cc1cccc(F)c1)O2,6,26[16.7 µM]
COCCNC(=O)C[C@@H]1CC[C@@H]2[C@H](COc3ccc(NC(C)=O)cc3C(=O)N2C)O1,0,-2[16.7 µM]

# An excerpt from above in order of their number in Yeast UUG start, smallest number first:
SMILES,Yeast UUG start,Env fusion inh
C[C@H](CO)N1C[C@H](C)[C@H](CN(C)Cc2cccc(F)c2)Oc2cc(C#Cc3ccccn3)ccc2S1(=O)=O,-7,-6[16.7 µM]
Cc1ccc(S(=O)(=O)N[C@@H]2CC[C@H](CCNC(=O)Cc3ccccn3)O[C@@H]2CO)cc1,-3,14[16.7 µM]
C[C@H](CO)N1C[C@H](C)[C@H](CN(C)Cc2ccc3c(c2)OCO3)Oc2ccc(NC(=O)Nc3cccc4ccccc34)cc2C1=O,0,16[16.7 µM]
COc1ccc(S(=O)(=O)N2C[C@H](O)COC[C@@H]3O[C@@H](CC(=O)N[C@H]4CCN(Cc5ccccc5)C4)CC[C@H]32)cc1,5,-9[16.7 µM]
Cc1noc(C)c1NC(=O)N(C)C[C@H]1Oc2ncc(/C=C/c3ccccc3)cc2C(=O)N([C@H](C)CO)C[C@H]1C,8,21[16.7 µM]
Cc1noc(C)c1NC(=O)N(C)C[C@@H]1OCCCC[C@@H](C)Oc2ccc(NS(=O)(=O)c3ccc(Cl)cc3)cc2C(=O)N([C@H](C)CO)C[C@@H]1C,22,27[16.7 µM]

# More records.
SMILES,Yeast UUG start,Env fusion inh
COCC(=O)Nc1ccc2c(c1)[C@@H]1C[C@@H](CC(=O)NCc3ccc(OC)cc3)O[C@H](CO)[C@@H]1O2,-18,-2[16.7 µM]
O=C(Cc1ccccc1)N[C@@H]1C=C[C@H](CC(=O)N2CCCCC2)O[C@@H]1CO,-15,57*[16.7 µM]
COc1ccc(S(=O)(=O)N[C@@H]2CC[C@H](CC(=O)O)O[C@@H]2CO)cc1,-9,10[16.7 µM]
C[C@@H]1CN([C@H](C)CO)C(=O)c2cc(NC(=O)CCCN(C)C)ccc2O[C@@H](C)CCCCO[C@@H]1CN(C)S(=O)(=O)c1ccccc1,13,-5[16.7 µM]
O=C(C[C@H]1CC[C@H](NC(=O)Cc2ccccn2)[C@@H](CO)O1)NCCCN1CCOCC1,-28,10[16.7 µM]
C[C@@H]1CN([C@H](C)CO)S(=O)(=O)c2ccc(C#Cc3cccc(F)c3)cc2O[C@@H]1CN(C)S(=O)(=O)c1cn(C)cn1,4,-3[16.7 µM]
Cc1ccc(S(=O)(=O)N[C@@H]2C=C[C@@H](CC(=O)NCc3ccccc3F)O[C@H]2CO)cc1,-1,-15[16.7 µM]
COCC#Cc1cnc2c(c1)C(=O)N([C@H](C)CO)C[C@H](C)[C@H](CN(C)C(=O)C1CC1)O2,20,-14[16.7 µM]
C[C@@H]1CN([C@@H](C)CO)C(=O)c2cc(C3=CCCCC3)cnc2O[C@@H]1CN(C)Cc1ccccc1,-4,19[16.7 µM]
Cc1ccc(S(=O)(=O)Nc2ccc3c(c2)C(=O)N([C@H](C)CO)C[C@H](C)[C@@H](CN(C)S(=O)(=O)c2ccc(C)cc2)O3)cc1,4,1[16.7 µM]
COc1ccc(C#Cc2ccc3c(c2)O[C@H](CN(C)C(C)=O)[C@@H](C)CN([C@@H](C)CO)S3(=O)=O)cc1,-7,27[16.7 µM]
COc1ccccc1-c1cnc2c(c1)C(=O)N([C@@H](C)CO)C[C@@H](C)[C@@H](CN(C)Cc1ccncc1)O2,137*,10[16.7 µM]
Cc1ccc(S(=O)(=O)NCC[C@H]2CC[C@@H](NC(=O)Nc3ccccc3F)[C@H](CO)O2)cc1,-13,9[16.7 µM]
C[C@@H]1CCCCO[C@H](CN(C)Cc2ccncc2)[C@@H](C)CN([C@@H](C)CO)C(=O)c2cc(NS(=O)(=O)c3cn(C)cn3)ccc2O1,1,6[16.7 µM]
C[C@@H]1CN([C@H](C)CO)C(=O)c2cc(NC(=O)Nc3cccc4ccccc34)ccc2O[C@@H]1CN(C)Cc1ccccc1,-7,24[16.7 µM]
C[C@@H]1CN([C@H](C)CO)C(=O)c2cc(C#Cc3ccc(F)cc3)cnc2O[C@H]1CN(C)C(=O)c1ccccc1F,-3,-9[16.7 µM]
CN(C)C(=O)C[C@@H]1CC[C@@H]2[C@H](COC[C@@H](O)CN2CC2CCCCC2)O1,-17,-8[16.7 µM]
C[C@@H]1CCCCO[C@H](CN(C)C(=O)Nc2ccc(F)cc2)[C@H](C)CN([C@@H](C)CO)C(=O)c2cc(NC(=O)Nc3ccccc3)ccc2O1,-6,7[16.7 µM]
COc1cccc(S(=O)(=O)Nc2ccc3c(c2)[C@@H]2C[C@H](CC(=O)NCc4cccc(F)c4)O[C@@H](CO)[C@@H]2O3)c1,3,29[16.7 µM]
C[C@H]1CN([C@@H](C)CO)S(=O)(=O)c2ccc(-c3cccnc3)cc2O[C@@H]1CN(C)C(=O)CN(C)C,18,-20[16.7 µM]
C[C@@H]1CCCCO[C@H](CN(C)C(=O)NC2CCCCC2)[C@H](C)CN([C@H](C)CO)C(=O)c2cc(NC(=O)c3ccccc3)ccc2O1,49,49[16.7 µM]
CNC(=O)C[C@H]1CC[C@@H]2[C@H](COc3ccc(NS(=O)(=O)c4cccc(F)c4)cc3C(=O)N2C)O1,-19,-33[16.7 µM]
C[C@H](CO)N1C[C@H](C)[C@@H](CN(C)Cc2ccc(-c3ccccc3)cc2)Oc2ccc(NC(=O)NC3CCCCC3)cc2C1=O,4,31[16.7 µM]
N#C[C@@H]1[C@@H](c2ccc(-c3cccc(F)c3)cc2)[C@@H](CO)N1C(=O)c1cccnc1,2,-12[16.7 µM]
C[C@H]1CCCCO[C@H](CN(C)C(=O)NC2CCCCC2)[C@@H](C)CN([C@@H](C)CO)C(=O)c2cc(NC(=O)Nc3ccccc3)ccc2O1,8,56*[16.7 µM]
# (next part)
SMILES,Yeast UUG start,Env fusion inh
CCC(=O)N(C)C[C@@H]1Oc2ncc(C#C[C@H](C)O)cc2C(=O)N([C@H](C)CO)C[C@H]1C,-2,3[16.7 µM]
COCC#Cc1cnc2c(c1)C(=O)N([C@H](C)CO)C[C@H](C)[C@H](CN(C)Cc1ccc3c(c1)OCO3)O2,37,3[16.7 µM]
CNC(=O)C[C@@H]1CC[C@H]2[C@@H](COc3ccc(NC(=O)c4ccccc4F)cc3C(=O)N2C)O1,5,6[16.7 µM]
O=C(C[C@H]1CC[C@H](NS(=O)(=O)c2ccc(F)cc2)[C@H](CO)O1)NCc1ccncn1,-1,-29[16.7 µM]
CN(C)C(=O)C[C@H]1CC[C@H]2[C@@H](COc3ccc(NC(=O)c4ccc(F)c(F)c4)cc3C(=O)N2C)O1,18,9[16.7 µM]
COc1ccc(-c2cn(CC[C@@H]3CC[C@H](NC(=O)NC(C)C)[C@@H](CO)O3)nn2)cc1,21,-17[16.7 µM]
COc1ccc(S(=O)(=O)Nc2ccc3c(c2)CC(=O)N([C@H](C)CO)C[C@@H](C)[C@H](CN(C)Cc2ccc(-c4ccccc4)cc2)O3)cc1,9,-10[16.7 µM]
CC(=O)N(C)C[C@@H]1Oc2ncc(C#CC(C)(C)O)cc2C(=O)N([C@H](C)CO)C[C@@H]1C,-4,-10[16.7 µM]
C[C@@H]1CCCCO[C@@H](CN(C)S(C)(=O)=O)[C@H](C)CN([C@@H](C)CO)C(=O)c2cc(NC(=O)Nc3ccc4c(c3)OCO4)ccc2O1,12,12[16.7 µM]
C[C@@H]1CN([C@H](C)CO)C(=O)c2cc(N(C)C)ccc2O[C@H]1CN(C)Cc1ccc(C(=O)Nc2ccccc2N)cc1,4,4[16.7 µM]
CC(=O)N(C)C[C@H]1Oc2cc(C#Cc3ccncc3)ccc2S(=O)(=O)N([C@@H](C)CO)C[C@H]1C,4,-20[16.7 µM]
C[C@@H]1CN([C@@H](C)CO)C(=O)c2cc(NS(C)(=O)=O)ccc2O[C@H]1CN(C)Cc1ccccc1,-15,-11[16.7 µM]
C[C@H](CO)N1C[C@H](C)[C@@H](CN(C)C(=O)Nc2ccc(F)cc2)Oc2ccc(NC(=O)CCN3CCOCC3)cc2CC1=O,23,-5[16.7 µM]
COCC(=O)Nc1ccc2c(c1)[C@H]1C[C@@H](CC(=O)NC3CCCC3)O[C@@H](CO)[C@H]1O2,-8,-4[16.7 µM]
CO[C@@H]1CN(C)C(=O)c2cc(NC(=O)C3CCOCC3)ccc2OC[C@H](C)N(C(C)=O)C[C@H]1C,1,-6[16.7 µM]
C[C@@H]1CN([C@@H](C)CO)S(=O)(=O)c2ccc(C3=CCCC3)cc2O[C@H]1CN(C)Cc1ccccc1F,1,11[16.7 µM]
COc1ccccc1S(=O)(=O)N[C@H]1C=C[C@H](CC(=O)NCc2cc(F)cc(F)c2)O[C@H]1CO,-6,-11[16.7 µM]
N#C[C@H]1[C@@H](c2ccc(-c3ccc(F)cc3)cc2)[C@H](CO)N1c1nc(-c2ccccc2)cs1,-14,-5[16.7 µM]
COc1cccc(NC(=O)Nc2ccc3c(c2)C(=O)N(C)C[C@H](OC)[C@H](C)CN[C@@H](C)CO3)c1,-3,7[16.7 µM]
C[C@@H]1CN([C@H](C)CO)S(=O)(=O)c2ccc(Br)cc2O[C@H]1CN(C)Cc1ccccn1,-8,2[16.7 µM]
CCC(=O)Nc1ccc2c(c1)C(=O)N(C)C[C@@H](OC)[C@@H](C)CN(CCc1ccccc1)[C@@H](C)CO2,-15,13[16.7 µM]

# Bioassay records as filed in PubChem.
